Rango dissoc inh: prevents RanGTP from dissociating the Rango-importin beta complex; O95149+P62826; Biochemical FRET Rango-importin beta, RanGTP-induced dissociation; Potency, µM (titrated, usually from 46.1 µM), without a hit: at the top dose activity change, negative = inhibition; 340,000 compounds, 0.071% hits; active means falling FRET ratio curve, often poorly fitted, with flat reads before Ran was added; inconclusive means other falling curves, or compound fluorescence or quenching; inactive means flat or rising ratio curve;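 also: potency is read from the fitted curve at half-maximal effect; % of control where 0% means no effect; nearly all actives have a fitted effect of over 45% in size; -100% = wells without RanGTP and RCC1; the record marks most hits as doubtful in a second field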
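Compounds sat 5 min at room temperature with 0.1 uM Rango biosensor plus 0.25 uM importin beta, then FRET pre-read. RanGTP-RCC1 (0.6 uM Ran, 2mM GTP, 0.2 uM RCC1) added for 45 min, and the CFP/YFP post-read measured blocked complex dissociation.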
Rango complex inh: Rango-importin beta binding inhibition. Rango CFP/YFP FRET sensor + importin beta, 45 min. Potency, µM (series often up to 92.2 µM), without a hit: at the highest dose inhibition of complex formation. 340,000 compounds, 0.031% hits; active = rising FRET ratio curve, often small or poorly fitted; inconclusive = mostly compound fluorescence or quenching in the first reads; inactive = flat curves in all reads;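 also: potency is read from the fitted curve at half-maximal effect; 0% = DMSO wells and 100% = buffer wells lacking importin beta; nearly all actives have a fitted effect of over 15% in size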
Target sequence (Q14974 whole entry, looked up): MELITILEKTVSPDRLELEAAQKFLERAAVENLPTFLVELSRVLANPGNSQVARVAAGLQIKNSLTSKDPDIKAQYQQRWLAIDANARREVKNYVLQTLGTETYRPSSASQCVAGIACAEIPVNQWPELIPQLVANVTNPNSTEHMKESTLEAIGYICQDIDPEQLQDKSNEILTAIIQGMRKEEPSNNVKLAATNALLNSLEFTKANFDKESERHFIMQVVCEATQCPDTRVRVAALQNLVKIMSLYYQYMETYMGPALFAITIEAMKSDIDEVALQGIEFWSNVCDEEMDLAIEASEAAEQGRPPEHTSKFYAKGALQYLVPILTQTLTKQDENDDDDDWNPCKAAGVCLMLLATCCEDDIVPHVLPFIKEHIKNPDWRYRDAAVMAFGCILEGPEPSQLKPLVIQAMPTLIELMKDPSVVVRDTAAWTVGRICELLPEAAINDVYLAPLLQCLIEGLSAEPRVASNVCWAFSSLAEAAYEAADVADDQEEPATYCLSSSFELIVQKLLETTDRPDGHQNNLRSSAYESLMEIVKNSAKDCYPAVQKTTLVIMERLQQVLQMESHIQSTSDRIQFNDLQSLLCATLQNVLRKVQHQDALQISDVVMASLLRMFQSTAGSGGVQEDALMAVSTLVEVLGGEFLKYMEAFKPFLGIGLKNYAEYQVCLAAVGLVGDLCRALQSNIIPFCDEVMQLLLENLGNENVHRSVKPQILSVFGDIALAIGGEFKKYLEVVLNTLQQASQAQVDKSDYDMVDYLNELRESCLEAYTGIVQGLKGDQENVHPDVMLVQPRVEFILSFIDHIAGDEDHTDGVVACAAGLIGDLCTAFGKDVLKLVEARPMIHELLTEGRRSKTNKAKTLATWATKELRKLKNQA
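Inhibition scored from the CFP 486 nm/YFP 530 nm FRET ratio 45 min after adding 0.125 microM importin beta to 50 nM Rango biosensor preincubated 5 min with compound (room temperature, PBS with DTT, Tween-20, BSA). No-importin wells as positive control.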
GLA inh pH 4.5: alpha-galactosidase A (human) inhibition, pH 4.5. 230,000 tested, under 10 active. activity change, negative = inhibition, % at 105 µM. AID 1467. purified enzyme, 4-MU-alpha-Gal fluorescence, pH 4.5; inconclusive = small, poorly fitted or top-dose-only inhibition, or a rising curve; inactive = flat fitted curve, though single readings scatter; no compound was filed as active;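 also: 0% = full activity with enzyme and -100% = basal without enzyme; dose as in the result columns while the protocol names 77 µM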
miR-21 reporter: miR-21 reporter, rising signal | Potency, µM (top dose mostly 38.3 µM), inactives show top-dose reporter change, positive = more light | HeLa miR-21 FLuc reporter, luciferase, 48 h | 340,000 tested, under 10 active | AID 2288; active = well fitted rising curve with a large enough effect; inconclusive = small, poorly fitted or top-dose-only effect; inactive = no such curve, though single readings can be large or run the other way;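 also: % of control where 0% means no effect; miR-21 action dims this reporter so a rising signal means less miR-21 action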
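HeLa miR-21-FLuc reporter line, endogenous miR-21; 2000 cells/well in DMEM/10% FBS; compound titration up to ~40uM final, 48 h, 37 degree Celsius; luciferase detection reagent, 15 min lysis, CCD luminescence.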
Starred values were filed as active, the others as inactive; ? = inconclusive; / = not tested or not shown; & = joins results of further samples. The list is partial, so the mix of outcomes need not match the whole.

Rango dissoc inh | GLA inh pH 4.5 | compound | Rango complex inh | miR-21 reporter
1% | / | Cc1ccc(C)c(N2N=C(C(=O)Nc3ccccc3N3CCOCC3)CCC2=O)c1 | -0.1% | /
17% | 5 | CCOP(=O)(O)c1ccccc1OCCOCCOc1ccccc1P(=O)(O)OCC | -6.7% | -1%
-1% | -1 | CCOC(=O)c1c(NC(=O)CC2Nc3cc(C)c(C)cc3NC2=O)sc(C)c1C (configuration not stated) | ? | -4%
9% | -3 | Cn1c(=O)c2c(ncn2CCCC(=N)N2CCOCC2)n(C)c1=O | 1.1% | -2%
-7% | 6 | COc1ccc(CCN2C(=O)c3cccnc3C2=O)cc1OC | 2.3% | -1%
? | 2 | O=C(CSc1ccccn1)Nc1ccc2c(c1)oc1ccccc12 | -1.2% | -51%
3% | -8 | CCOC(=O)c1ccc(-n2c(CCC(=O)O)ccc2-c2cccs2)cc1 | ? | -15%
12% | / | CC12CCC(=O)N1C(C(=O)N1CCN(S(=O)(=O)c3ccccc3F)CC1)CS2 (configuration not stated) | -4.6% | /
? | 4 | O=C(CCC1COc2ccccc2O1)Nc1ccccn1 (configuration not stated) | ? | -11%
-1% | 7 | COc1cc(Cl)c(C)cc1NC(=O)CSc1nnc(-c2cccnc2)n1Cc1ccco1 | 5.8% | 0%
1% | / | COCC(=O)N/N=C\c1ccc(OC/C=C/c2ccccc2)c(OC)c1 | 1.9% | -1%
9% | / | O=C(COc1ccccc1)Nc1ccc(-c2ccc(N3CCOCC3)nn2)cc1 | 2.6% | /
? | -1 | Cc1ccc(C(=O)CSc2ncnc3ccccc23)o1 | ? | -48%
9% | / | O=C(CCc1ccccc1)NC1(Cc2ccccc2)CCN(CCc2cccs2)C1=O (configuration not stated) | 2.6% | /
-13% | 4 | O=C(c1ccc(Cl)c(Cl)c1)c1cnc(Nc2ccccc2)s1 | 2.8% | -1%

Further entries follow:
Rango dissoc inh | GLA inh pH 4.5 | compound | Rango complex inh | miR-21 reporter
15% | / | COc1cc(Nc2ccc(S(N)(=O)=O)cc2)c([N+](=O)[O-])nc1[N+](=O)[O-] | -8.9% | 3%
20% | / | C=CCn1c(=O)c(C(=O)NCCc2ccc(Cl)cc2)c(O)c2cc(OC)c(OC)cc21 | -0.5% | 0%
-12% | / | COc1ccc(NC(=O)CN(C)C(=O)c2ccccc2Sc2ncnc3sc(C)c(C)c23)cc1 | -7.3% | /
2% | -3 | CCOC(=O)C1CCN(C(=O)CCn2c(=O)[nH]c3ccccc3c2=O)CC1 | -0.4% | 0%
13% | -28 | CCN1CCN(CCCN(Cc2ccco2)C(=S)Nc2ccc(Cl)cc2)CC1 | 1.7% | 1%
21% | 1 | OCCNc1nc(-c2ccccc2)nc2ccccc12 | 0.0% | 0%
-5% | / | COc1ccc(N(CC(=O)NC2CC2)S(=O)(=O)c2ccccc2)cc1 | 4.3% | 0%
3% | / | O=C(CCC(=O)c1cccs1)NCCc1ccc(F)cc1 | -2.0% | /
1% | -1 | CC(=O)Nc1sc(NC(=O)c2ccc([N+](=O)[O-])cc2)nc1-c1cccs1 | -0.1% | -18%
0% | / | COCCn1c(-c2ccc(NC(C)=O)cc2)nc2c1c(=O)[nH]c(=O)n2CC(C)C | -3.8% | -8%
-24% | / | CCn1c(CCCNC(=O)c2ccco2)nc2ccccc21 | -0.9% | 0%
-6% | / | C/C(Cl)=C\Cn1c(N2CCCC2)nc2c1c(=O)n(C)c(=O)n2C | 1.9% | 0%
-7% | / | NC(=S)Nc1ccc(S(=O)(=O)c2ccc(NC(N)=S)cc2)cc1 | 3.6% | -3%
28% | / | CC(C)Cn1c(SCC(=O)Nc2ccc3[nH]c(=O)[nH]c3c2)nc2ccccc2c1=O | -1.0% | /
-1% | 2 | Cc1ccc(CN2CCN(CC(C)C)C(CCO)C2)s1 (configuration not stated) | -1.0% | -59%

Carrying on:
Rango dissoc inh | GLA inh pH 4.5 | compound | Rango complex inh | miR-21 reporter
-1% | 4 | O=C(NNc1ccc(F)cc1F)C1CCC1 | -1.2% | -9%
15% | -7 | COC(=O)c1c(NC(C)=O)sc2c1CCCC2 | ? | 2%
13% | 6 | Cn1c2c(c(=O)n(C)c1=O)CN(CCc1ccccc1)CN2 | -0.3% | -3%
-7% | -5 | O=C(OCC(=O)c1c[nH]c2ccccc12)c1cc2ccccc2cc1O | ? | -22%
20% | 2 | C/C(=N\N1C(=O)c2ccccc2C1=O)c1cccc([N+](=O)[O-])c1 | -5.1% | -18%
18% | -6 | CCN(CC)Cc1nc2c(c(=O)[nH]1)C1(CCCCC1)Cc1ccccc1-2 | -0.8% | 0%
-15% | / | Cc1c(C(=O)NNC(=O)c2csc(N3CCOCC3)n2)oc2ccccc12 | -1.2% | /
7% | / | CCOc1cc(C(=O)NCc2ccco2)cc(OCC)c1OCC | -0.4% | 2%
-6% | 6 | COc1cccc(C(=O)OCCN2C(=O)c3ccccc3C2=O)c1OC | 0.3% | -14%
8% | 6 | Cc1cccc(C(=O)Nc2ccnc(-c3cccnc3)n2)c1 | 0.6% | 0%
2% | / | CCc1ccccc1NC(=O)c1cc(C)no1 | -1.4% | -1%
21% | 8 | COCCOC(=O)c1c(NC(=O)CN(C)c2ccccc2)sc(C(N)=O)c1C | 0.2% | 6%
6% | 3 | Cc1cc(C)c(NC(=O)OCCN2CCOCC2)c(C)c1 | -0.5% | -2%
0% | -5 | CCCCCCCC[n+]1c(C)n(-c2ccccc2)c2ccc(NC(C)=O)cc21 | -1.1% | ?
-1% | 1 | COc1ccc(N2CCN(CC(=O)Nc3nnc(-c4ccccc4)s3)CC2)cc1 | -0.1% | -5%

Carrying on.
Rango dissoc inh | GLA inh pH 4.5 | compound | Rango complex inh | miR-21 reporter
-4% | / | CC(C)CNC(=S)N(CCN(C)C)Cc1cc2cc3c(cc2[nH]c1=O)OCO3 | 0.2% | 0%
6% | -11 | CCC(C)NCCCOc1ccc([N+](=O)[O-])cc1 (configuration not stated) | -1.7% | 0%
-6% | -6 | O=C(c1cccs1)N1CCN(C2CCCCC2)CC1 | 2.0% | -11%
-4% | / | Cc1cc(S(=O)(=O)NCC(C)C)ccc1OCC(=O)NC1CC1 | 2.1% | 0%
-1% | / | COc1ccc(S(=O)(=O)NCC2CCCN(Cc3cn(C)nc3C)C2)cc1 (configuration not stated) | -3.2% | 1%
7% | -2 | O=C(Nc1ccccc1)Nc1cccn(Cc2c(F)cccc2Cl)c1=O | -1.0% | -22%
? | 3 | COc1ccc2nc3ccccc3nc2c1 | ? | -40%
10% | / | Nn1c(COc2ccccc2F)nnc1SCC(=O)NC1CCS(=O)(=O)C1 (configuration not stated) | -1.3% | /
4% | -8 | COc1ccc(NC(=O)c2cc(OC)c(OC)c(OC)c2)cc1S(=O)(=O)N1CCCCC1 | -1.5% | 20%
-1% | / | Cc1ccc(OCC(=O)NNC(=O)Cn2c(=O)cnc3ccccc32)cc1 | -2.5% | /
-17% | 6 | O=c1cc(N2CCCC2)c2ccccc2o1 | 0.9% | 4%
1% | / | O=C(O)c1ccc[n+](Cc2ccc([N+](=O)[O-])cc2)c1 | 0.8% | /
-11% | 2 | Cn1cc(C(=O)Nc2cccc(F)c2)cn1 | -0.4% | -12%
-14% | / | Cc1cccc(C)c1NC(=O)c1ccccc1C(=O)O | 2.6% | 1%
9% | / | COc1ccc(NC(=O)C2CCCNC2=O)cc1 (configuration not stated) | -2.3% | -3%

The results go on.
Rango dissoc inh | GLA inh pH 4.5 | compound | Rango complex inh | miR-21 reporter
14% | 1 | CCc1cc(C(N)=O)c(NC(=O)c2ccc(OC)cc2)s1 | -3.0% | -57%
? | / | N=c1c(C(=O)NCc2ccc3c(c2)OCO3)cc2c(=O)n3ccccc3nc2n1CC1CCCO1 (configuration not stated) | ? | -3%
1% | 2 | COc1ccc(O)c(/C=N/NC(=O)c2ccc(CSc3nc(C)cc(C)n3)cc2)c1 | 0.8% | 20%
-16% | -5 | CCOc1ccc(NC(=O)CC2C(=O)N(c3ccc(OC)cc3)C(=O)N2Cc2ccc(OC)cc2)cc1 (configuration not stated) | 0.6% | 14%
-18% | 4 | CCn1cc(C(=O)NCC2CCCO2)c(=O)c2cc(S(=O)(=O)N3CCC(C)CC3)ccc21 (configuration not stated) | ? | 3%
15% | / | O=C(COc1coc(CN2CCc3ccccc3C2)cc1=O)Nc1cccc([N+](=O)[O-])c1 | -3.3% | /
16% | 1 | CCC(C)(C#CCN1CCCCC1)OCCC#N (configuration not stated) | -0.4% | -4%
1% | -26 | COC(=O)c1cn(C(=O)c2ccco2)c2ccccc12 | -2.2% | -10%
-2% | 2 | Cc1ccc(N2C(=O)CCSC23C(=O)Nc2ccccc23)cc1 (configuration not stated) | ? | 2%
21% | 8 | C=CCNc1nc2c(c(=O)n(C)c(=O)n2C)n1CCCCCC | 4.7% | 16%
1% | -5 | COc1cccc(-n2c(SCC(=O)NC3CCCC3)nnc2-c2ccco2)c1 | -3.4% | -13%
? | -6&1 | O=c1c(O)c(-c2ccc(O)cc2)oc2cc(O)cc(O)c12 | -0.8% | /
11% | / | CN(C)S(=O)(=O)c1ccc(C(=O)OCC(=O)NC(=O)NC2CCCC2)cc1 | 0.5% | /
25% | 4 | O=c1oc2cc(Br)ccc2n1CSC1=NCCS1 | -0.9% | -17%
14% | / | Cc1ccc(Cl)c(NC(=O)CSc2cccc[n+]2[O-])c1Cl | -3.4% | /
? | -16 | Cn1c(N/N=C/c2cc3ccccc3nc2Cl)nc2ccccc21 | ? | 11%
0% | / | CN(C)S(=O)(=O)c1ccc(C(=O)OCC2CCCO2)cc1 (configuration not stated) | -1.9% | -5%
2% | 4 | CCOC(=O)CON1C(=O)C(C)(C)N(OCC(=O)OCC)C(=O)C1(C)C | -2.9% | -1%

Reprinted from the listing, 17 compounds:
Rango dissoc inh | GLA inh pH 4.5 | compound | Rango complex inh | miR-21 reporter
? | / | N=c1c(C(=O)NCc2ccc3c(c2)OCO3)cc2c(=O)n3ccccc3nc2n1CC1CCCO1 (configuration not stated) | ? | -3%
1% | 2 | COc1ccc(O)c(/C=N/NC(=O)c2ccc(CSc3nc(C)cc(C)n3)cc2)c1 | 0.8% | 20%
-16% | -5 | CCOc1ccc(NC(=O)CC2C(=O)N(c3ccc(OC)cc3)C(=O)N2Cc2ccc(OC)cc2)cc1 (configuration not stated) | 0.6% | 14%
-18% | 4 | CCn1cc(C(=O)NCC2CCCO2)c(=O)c2cc(S(=O)(=O)N3CCC(C)CC3)ccc21 (configuration not stated) | ? | 3%
15% | / | O=C(COc1coc(CN2CCc3ccccc3C2)cc1=O)Nc1cccc([N+](=O)[O-])c1 | -3.3% | /
16% | 1 | CCC(C)(C#CCN1CCCCC1)OCCC#N (configuration not stated) | -0.4% | -4%
1% | -26 | COC(=O)c1cn(C(=O)c2ccco2)c2ccccc12 | -2.2% | -10%
-2% | 2 | Cc1ccc(N2C(=O)CCSC23C(=O)Nc2ccccc23)cc1 (configuration not stated) | ? | 2%
21% | 8 | C=CCNc1nc2c(c(=O)n(C)c(=O)n2C)n1CCCCCC | 4.7% | 16%
1% | -5 | COc1cccc(-n2c(SCC(=O)NC3CCCC3)nnc2-c2ccco2)c1 | -3.4% | -13%
? | -6&1 | O=c1c(O)c(-c2ccc(O)cc2)oc2cc(O)cc(O)c12 | -0.8% | /
11% | / | CN(C)S(=O)(=O)c1ccc(C(=O)OCC(=O)NC(=O)NC2CCCC2)cc1 | 0.5% | /
25% | 4 | O=c1oc2cc(Br)ccc2n1CSC1=NCCS1 | -0.9% | -17%
14% | / | Cc1ccc(Cl)c(NC(=O)CSc2cccc[n+]2[O-])c1Cl | -3.4% | /
? | -16 | Cn1c(N/N=C/c2cc3ccccc3nc2Cl)nc2ccccc21 | ? | 11%
0% | / | CN(C)S(=O)(=O)c1ccc(C(=O)OCC2CCCO2)cc1 (configuration not stated) | -1.9% | -5%
2% | 4 | CCOC(=O)CON1C(=O)C(C)(C)N(OCC(=O)OCC)C(=O)C1(C)C | -2.9% | -1%
